Bioassay records: PubChem BioAssay, National Center for Advancing Translational Sciences (NCATS)
VDR inhibitor: vitamin D3 receptor (human) inhibition | P11473 | VDR-SRC2-3 peptide fluorescence polarization, 2 h | Potency, µM, for inactives: max response, negative = inhibition, hits mostly inhibitors | 400,000 compounds, 0.93% hits; active means well fitted inhibition curve with a large enough effect; inconclusive means small, poorly fitted or top-dose-only effect, or another doubt; inactive means no such curve, though single readings can be large or run the other way; further: series mostly up to about 120 µM
Target sequence (P11473 whole entry, looked up): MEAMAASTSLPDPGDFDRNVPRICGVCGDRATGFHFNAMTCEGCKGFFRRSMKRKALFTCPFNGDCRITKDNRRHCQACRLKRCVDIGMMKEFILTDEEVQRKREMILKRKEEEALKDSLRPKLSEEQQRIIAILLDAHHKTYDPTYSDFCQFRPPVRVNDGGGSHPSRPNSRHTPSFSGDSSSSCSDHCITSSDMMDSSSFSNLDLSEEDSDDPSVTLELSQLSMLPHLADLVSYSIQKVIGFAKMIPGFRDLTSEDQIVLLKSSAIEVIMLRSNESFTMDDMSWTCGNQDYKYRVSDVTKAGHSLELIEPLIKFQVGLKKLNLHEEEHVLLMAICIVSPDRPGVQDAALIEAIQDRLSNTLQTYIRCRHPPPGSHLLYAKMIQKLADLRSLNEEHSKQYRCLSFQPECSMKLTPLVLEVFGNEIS
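Measured by FP: displacement of SRC2-3 coactivator peptide from VDR by library compounds, following a two-hour ambient incubation.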
An asterisk follows results filed as active; ? = inconclusive; & = joins results of further samples; [ ] = remark or other dose. On the % scale 0 is the no-effect control and ±100 the full control effect; potency means the concentration at half of the fitted maximal effect. Some of the compounds tested; the hit share may differ from the screen's.

SMILES	VDR inhibitor
N#Cc1ccc(-c2csc(NC(=O)c3cc(-c4cccs4)nc4ccccc34)n2)cc1	-18%
CCOC(=O)c1cc(-c2ccccc2)nc2ccc(C)cc12	13%&-26%
Cc1ccc(C(=O)C2(C)C3c4cc(Br)ccc4OC(=O)C32C(=O)c2ccco2)cc1 (centres undefined)	-1%
Oc1ccc(Nc2nc(Cl)nc(NCc3ccco3)n2)cc1	-5%
CC(C)(C)OC(=O)N1CCC(c2c(C(=O)N3CCN(c4ccccn4)CC3)cnn2-c2ccccc2Cl)CC1	15%
O=C1NC2(CCCC2)C(=O)N1Cc1cc(=O)n2ccsc2n1	6%
Cc1ccc(Nc2nc3ccccc3c(=O)s2)cc1	-3%
COc1ccc(NC(=O)Cn2nnc(-c3ccccc3N)n2)cc1OC	2%
CC(Oc1ccccc1)C(=O)N1CCN=C1SCc1ccc(F)cc1 (centres undefined)	-3%
O=C1C=C(c2ccc(Cl)c(C(F)(F)F)c2)C[C@@H](c2ccc(Cl)cc2)C1	-28%
NC(=O)COC(=O)CCCc1c[nH]c2ccccc12	7%
CCc1ccc(NC2=NCC(=O)N2Cc2ccc3c(c2)OCO3)cc1	11%
CC1=C(C(=O)NCc2cccc(F)c2)C2(CCCCC2)OC1=O	4%
CC1(C(=O)NNC(=S)NCc2ccco2)CC1(Cl)Cl (centres undefined)	3%
O=C(Nc1ccc(F)cc1)c1ccccc1NS(=O)(=O)N1CCCC1	-9%
Cc1c(NC(=O)c2cc(-c3ccccc3)nc3ccccc23)c(=O)n(-c2ccccc2)n1C	-4%
O=C(Nc1cccc(S(=O)(=O)N2CCOCC2)c1)c1ccc2c(=O)n3c(nc2c1)CCCCC3	-17%
COc1ccc(-c2cn3ccccc3n2)cc1[N+](=O)[O-]	-1%
O=c1c(-c2cccc(F)c2)nc2cncnc2n1Cc1ccc(F)cc1	?
CCO[C@H]1OC(C(=O)N2CCN(Cc3ccccc3)CC2)=C[C@@H](C2CCCCC2)[C@@H]1CCCO	-13%
COc1cc(OC)c(NC(=O)c2cc3c(=O)oc4ccc(C)cc4c3s2)cc1Cl	-11%
CCOC(=O)N1CCC(NC(=O)c2cc3ccccn3n2)CC1	-4%
COc1cc(-c2nc3n(c(=O)c2C#N)CCS3)cc(OC)c1OC	17%
Cc1ccc(-c2nc3ccc(Cl)cn3c2Nc2ccc3c(c2)OCCO3)s1	-10%
CS(=O)(=O)N1CCC2(CC1)CN(Cc1nccs1)C2	-2%
O=C(Cn1cncn1)N/N=C/c1cccc2ccccc12	-18%
NC(=O)c1c(NC(=O)CSc2nc3c(c(C(F)(F)F)n2)CCc2ccccc2-3)sc2c1CCCC2	1%
Cc1c(C(=O)NN)nn(-c2ccc(Cl)cc2)c(=O)c1C#N	3%
COC(=O)CCCC1=CC2=CC(=O)C(C)(OC(=O)c3cccs3)C(=O)C2=CN1CCN1CCOCC1 (centres undefined)	-20%
COC(=O)C(NC(=O)c1ccc(OC)cc1)(Nc1ncc(S(=O)(=O)c2ccc([N+](=O)[O-])cc2)s1)C(F)(F)F (centres undefined)	1%
CC(OC(=O)c1cccnc1SCc1cc(=O)n2ccccc2n1)c1ccccn1 (centres undefined)	-2%
O=C(CSc1nc2c(c(=O)n1-c1ccc(F)cc1)SCC2)NCC1CCCO1 (centres undefined)	-5%
CCCCCCCCCCCCC/C=C/[C@@H](O)[C@H](CO)NC(=O)CCCCCCC	7%&1%
Cc1ccc(C=Nc2cc([N+](=O)[O-])ccc2C)s1	?
COc1ccccc1N(CC(=O)NC1CCCCC1)S(C)(=O)=O	-12%
CCOCCCNC(=O)C(NC(=O)c1ccccn1)c1ccc(C)cc1 (centres undefined)	-15%
COc1ccc(-n2nc([N+](=O)[O-])c(=NCCc3ccccc3)n2O)cc1	-7%
COC(=O)[C@@]1(Cc2ccc(OC)cc2)[C@@H]2[C@@H](CC(=O)[C@H]2CC(=O)C(=O)N(C)C)CN1C(=O)c1ccccc1	-3%
c1ccc2c(N3CCOCC3)nc(-c3ccoc3)nc2c1	?
CCn1c(Sc2nc(C)nc3scc(-c4cccs4)c23)n[nH]c1=O	18%
O=C(NCC1CCCO1)c1c(O)c2cccc3c2n(c1=O)CC3 (centres undefined)	9%
CC1=Nc2cc(C(=O)N3CCCC3)ccc2Sc2ccc(C)cc21	26%
CCCOc1c(Cl)cc(C(=O)N(Cc2cccc(OC)c2)C2CCS(=O)(=O)C2)cc1Cl (centres undefined)	3%
COc1ccc(C2C(C(=O)Nc3ccccc3)=C(C)Nc3c(C(=O)Nc4ccccc4)cnn32)cc1 (centres undefined)	0%
CC(=O)N1[C@@H]2CC3C4CC=C5C[C@@H](O)CC[C@]5(C)C4CC[C@]3(C)[C@@]21C(C)=O (some centres undefined)	-2%
Cc1ccc(C(=O)CC2(O)C(=O)N(Cc3ccccc3Cl)c3ccccc32)o1 (centres undefined)	-7%
CCOC(=O)N1CCN(CC(=O)Nc2ccc(F)cc2F)CC1	2%
CCN(CC)CCOC(=O)C1(c2ccc(OC)c(OC)c2)CCCC1	9%
CCOC(=O)c1sc(=NC(=O)c2ccc(S(=O)(=O)N3CC(C)OC(C)C3)cc2)n(C)c1C (centres undefined)	3%
CC1(C)CC(=O)C=C(c2cccc3c2Oc2ccccc2S3)C1	0%
O=C(N/N=C/C(Br)=C/c1ccccc1)c1ccccc1[N+](=O)[O-]	-6%
Brc1ccc(CN2C3=NCCCN3c3ccccc32)cc1	-14%
Cc1ccc(CNC(=O)c2nccnc2C(=O)O)cc1	7%
O=Cc1ccc(C(=O)OCC(=O)NC(=O)Nc2ccccc2F)cc1	9%
CCCCc1ccc(NC(=O)C(=O)NCCN2CCN(C(=O)c3ccc([N+](=O)[O-])cc3)CC2)cc1	-7%
CC(=O)Nc1ccc(-c2nc3ccc(Cl)cc3[nH]2)cc1	9%
Cc1ccc2cc(C#N)c(N3CCCN(C(=O)C4CCCO4)CC3)nc2c1C (centres undefined)	-9%
OCCNCc1cccc(OCc2ccc(Cl)cc2)c1	14%
COc1ccc2c(c1)O[C@H](c1ccc3c(c1)OCO3)[C@@H](OC(=O)N[C@H]1CCCc3ccccc31)C2=O	-1%&-2%
CNC(=O)CC1C(=O)N(c2ccc(F)cc2)C(=S)N1NC(=O)c1ccc(Cl)cc1 (centres undefined)	-7%

More records follow:
SMILES	VDR inhibitor
Cc1ccc(NC2CC(=O)N(CCc3ccccc3)C2=O)cc1 (centres undefined)	24%
CNc1nc2c(N)ncnc2n1[C@@H]1O[C@@H]2COP(=O)(O)O[C@H]2[C@H]1O	0%
CNC(=O)CN(Cc1ccccc1)S(=O)(=O)c1ccccc1	4%
Cc1ccc(S(=O)(=O)c2nnn3c2nc(N2CCC(C)CC2)c2cc(Cl)ccc23)cc1C	14%
CC(C)NC(=O)C(=O)NCCC1CCCCN1S(=O)(=O)c1cccs1 (centres undefined)	-2%
COc1ccc(/C=N\Nc2ccccc2[N+](=O)[O-])c(C(=O)O)c1OC	-6%
C#CCNC(=O)C1=C[C@@H](c2ccc(C#C)cc2)C[C@@H](OCc2ccc(CO)cc2)O1	12%
COC(=O)c1cc2oc3ccccc3c2n1CC(=O)Nc1ccc(N(C)C)cc1	4%
COC(=O)C1=C(C)NC(=O)NC1c1ccc(-c2ccccc2Cl)o1 (centres undefined)	2%
CC1CC2(CCCC2)N(C(=O)N(C)C)c2ccc(F)cc21 (centres undefined)	2%
COc1ccc(C(=O)N2CCC(NC(=O)C(Cc3ccccc3OC)NC(C)=O)CC2)cc1 (centres undefined)	-17%
COc1cccc(C(c2c(N)[nH]c(=S)[nH]c2=O)c2c(N)[nH]c(=S)[nH]c2=O)c1	4%
CCCCSc1nc2c(c(C(F)(F)F)c1C#N)CCC2	5%
O=C(CCNS(=O)(=O)c1cccc2nonc12)Nc1ccc(F)cc1	-13%
COc1ccc2sc(-c3ccc(SC)cc3)c(C#CC(C)(C)O)c2c1	-23%
COc1cc(C(F)(F)F)c(C(=O)N(C)c2ccc(Cl)cc2)cn1	-16%
CCOc1ccccc1NC(=S)/C(=C(\[O-])c1ccc2c(c1)OCCO2)[n+]1ccc(CC)cc1	44%[activator]
CC(=O)Nc1cccc(C(=O)/C=C/c2ccco2)c1	-20%
O=C(COc1ccc(Cl)cc1)Nc1ccccc1Cl	4%
CCc1ccccc1NC1=CC(=O)CC(C)(C)C1	-10%
O=C(Cc1cccs1)Nc1nnc(SCc2ccc(Br)cc2)s1	-7%
C=CCN(C(=O)c1cc(C)cc(C)c1)C1(C(=O)Nc2ccccc2)CCN(C(C)C)CC1	4%
c1coc(-c2nnc(SCc3nc4ccccc4[nH]3)o2)c1	1%
COc1cc(/C=C(\C#N)c2ccccn2)ccc1OCc1ccccc1	-4%

Molecules shown so far with a nitro group on carbon (7):
SMILES	VDR inhibitor
COc1ccc(-c2cn3ccccc3n2)cc1[N+](=O)[O-]	-1%
COC(=O)C(NC(=O)c1ccc(OC)cc1)(Nc1ncc(S(=O)(=O)c2ccc([N+](=O)[O-])cc2)s1)C(F)(F)F (centres undefined)	1%
Cc1ccc(C=Nc2cc([N+](=O)[O-])ccc2C)s1	?
COc1ccc(-n2nc([N+](=O)[O-])c(=NCCc3ccccc3)n2O)cc1	-7%
O=C(N/N=C/C(Br)=C/c1ccccc1)c1ccccc1[N+](=O)[O-]	-6%
CCCCc1ccc(NC(=O)C(=O)NCCN2CCN(C(=O)c3ccc([N+](=O)[O-])cc3)CC2)cc1	-7%
COc1ccc(/C=N\Nc2ccccc2[N+](=O)[O-])c(C(=O)O)c1OC	-6%

Other results
SMILES	VDR inhibitor
CCN(CC)CCNC(=O)/C(=N\O)c1ccccn1	17%
COc1ccc(C2=NN(C(=O)/C=C/c3ccccc3)C(c3ccccc3)C2)c(OC(C)=O)c1 (centres undefined)	-23%
Cc1ccc(-c2nnn(CC(=O)N(CC(=O)NC3CCCC3)c3ccc(F)cc3)n2)o1	-3%
C=CCNC(=S)NNC(=O)c1cccc(Br)c1	-5%
O=C(CSc1nc(-c2cccs2)cc(C(F)(F)F)n1)NCCCn1ccnc1	9%
NS(=O)(=O)c1ccc(NC(=O)COC(=O)c2ccc(Cl)nc2)cc1	-10%
Cc1ccc(OC(=O)c2ccccc2)cc1C	-6%
CCc1ccc(C(C(=O)NCc2ccccc2)N(C(=O)c2csnn2)C2CC2)cc1 (centres undefined)	11%
S=C(Nc1ccc(Cl)cc1)NC1CCN(Cc2ccccc2)CC1	6%
Cc1ccc(/C=N/n2c(-c3ccco3)n[nH]c2=S)cc1	-8%
Cc1c(C)n(CC(O)CN2C(=O)c3ccccc3S2(=O)=O)c2ccccc12 (centres undefined)	5%
COc1ccc(-n2ncc3c(=O)n(CC(=O)NC(C)C)cnc32)cc1	-9%

Among those listed so far, these have bromine.
SMILES	VDR inhibitor
Cc1ccc(C(=O)C2(C)C3c4cc(Br)ccc4OC(=O)C32C(=O)c2ccco2)cc1 (centres undefined)	-1%
O=C(N/N=C/C(Br)=C/c1ccccc1)c1ccccc1[N+](=O)[O-]	-6%
Brc1ccc(CN2C3=NCCCN3c3ccccc32)cc1	-14%
O=C(Cc1cccs1)Nc1nnc(SCc2ccc(Br)cc2)s1	-7%
C=CCNC(=S)NNC(=O)c1cccc(Br)c1	-5%

(cont.)
SMILES	VDR inhibitor
COc1ccccc1-c1nnc(C2CCN(C(=O)c3cccc(C)c3)CC2)o1	1%
CCN1CCN(c2csc3ccc(Cl)cc3c2=O)CC1	7%
COc1cc2c(cc1OC)CN(C(=O)/C=C/c1cc(OC)c(OC)c(OC)c1)CC2	6%
Cc1ccc(C(=O)NNC(=O)C2CCN(S(=O)(=O)c3ccc(C)cc3)CC2)cc1	29%
COc1cccc(C(CCc2cc(OC)c(OC)c(OC)c2)NC(C)=O)c1 (centres undefined)	14%
Cc1ccc(S(=O)(=O)NCc2ccc(C(=O)NCCCN3CCN(C)CC3)cc2)cc1	-5%
Nc1ccc(C(=O)OCC(=O)Nc2ccc([N+](=O)[O-])cc2C(F)(F)F)cc1	-5%
COCCCNC1=C(Cl)C(=O)c2ccccc2C1=O	19%
COc1cc(NC(=O)CSc2nc3ncnc(N)c3[nH]2)c(C(=O)O)cc1OC	-12%
Cc1nc(-c2coc3cc(O)c(C)cc3c2=O)cs1	4%
CC(c1ccccc1)N1CC(C(=O)N2CCN(Cc3ccc(C#N)cc3)CC2)CC1=O (centres undefined)	15%
COc1cc(/C=c2\sc3n(c2=O)CCCN=3)ccc1O	2%

The final two records of the section before lead into the next:
SMILES	VDR inhibitor
CC(c1ccccc1)N1CC(C(=O)N2CCN(Cc3ccc(C#N)cc3)CC2)CC1=O (centres undefined)	15%
COc1cc(/C=c2\sc3n(c2=O)CCCN=3)ccc1O	2%
COCC(=O)N1CCC(Oc2ccc(C(=O)NCc3cnc(C)cn3)cc2)CC1	-21%
Cc1noc(C)c1S(=O)(=O)Nc1ccc2c(c1)C(=O)N([C@H](C)CO)C[C@H](C)[C@@H](CN(C)Cc1ccc(C(=O)O)cc1)O2	-6%
CCCCNC(=O)CSc1nc2cc3c(cc2c(=O)n1Cc1ccc(C(=O)NCCc2ccc(OC)c(OC)c2)cc1)OCO3	15%
O=C(Nc1cc(-c2ccccc2)[nH]n1)c1ccccc1	20%
Nc1nncn1C(=O)CCCN1C(=O)c2ccccc2C1=O	-13%
Nc1nonc1-n1nnc(C(=O)N/N=C/c2ccccc2)c1CSc1ccccc1	9%
CNC[C@H](O)[C@H](O)[C@H](O)[C@H](O)CO	-6%
CCCCN(C)S(=O)(=O)c1cc2c3c(c1)CCC(=O)N3CCC2	-17%
O=S(=O)(Nc1ccn(-c2ccccc2)n1)c1ccc(Br)cc1	-1%
Cc1nc(N2CCOCC2)[nH]c(=O)c1[N+](=O)[O-]	12%
CC(NC(=O)C1CCN(S(=O)(=O)c2ccc(F)cc2)CC1)c1ccccc1 (centres undefined)	20%
N/C(=N\OC(=O)CC1CCCCC1)c1cccc(Br)c1	-1%
COCC1CCN(Cc2cn[nH]c2-c2cc(OC)c(OC)c(OC)c2)CC1	7%
COc1ccccc1C(=O)NNC(=O)c1ccc2ccccc2c1	-14%
O=C(O)C1=CCCNC1	9%&7%&-5%
